# SARS PLpro yeast: inhibitors of SARS-CoV papain-like protease in yeast | S. cerevisiae expressing SARS-CoV PLpro, growth rescue; control for the full effect not named in the record | Potency, µM (highest dose often 32.9 µM), inactives show at the top dose activity, positive = growth rescue | hit rate 0.19% among 330,000 | AID 485353; note: 0% is about no effect; nearly all actives have a fitted effect of over 55% in size; growth read by luminescence after 48 h
# Cruzain inh Det: blocks cruzain activity in presence of Triton detergent | purified cruzain, Z-FR-AMC fluorescence, 0.01% Triton | Potency, µM, without a hit: max response, negative = inhibition, hits mostly inhibitors | hit rate 0.43% among 200,000 | AID 1478; active = well fitted curve in the direction sought with a large enough effect; inconclusive = small, poorly fitted or top-dose-only effect, or another doubt; inactive = no such curve, though single readings can be large; an effect the other way counts as inactive or inconclusive;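 note: plate controls were neutral wells for no effect and buffer without enzyme for full effect; nearly all actives have a fitted effect of over 40% in size; top concentration of the series not given in the record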
# Target sequence (P25779 123-467 limits assumed): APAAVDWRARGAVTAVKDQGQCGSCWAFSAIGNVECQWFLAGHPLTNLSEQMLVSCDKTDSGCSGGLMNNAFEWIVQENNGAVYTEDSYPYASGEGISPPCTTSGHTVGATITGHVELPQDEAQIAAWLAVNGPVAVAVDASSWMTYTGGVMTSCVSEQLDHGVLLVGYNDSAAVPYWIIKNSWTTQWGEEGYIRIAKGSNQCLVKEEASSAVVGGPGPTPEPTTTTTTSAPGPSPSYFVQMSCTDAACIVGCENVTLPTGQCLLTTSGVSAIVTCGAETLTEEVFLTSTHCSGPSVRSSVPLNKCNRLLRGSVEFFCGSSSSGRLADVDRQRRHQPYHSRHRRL
#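 Detergent-containing run (0.01% Triton X-100) in acetate buffer pH 5.5 with 5 mM DTT: enzyme at 1.5 nM final, 15 min compound preincubation at room temperature, then 2 uM Z-FR-AMC substrate. Activity taken as 60 s fluorescence increase at 360/450 nm.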
# MARV entry inh: blocks Marburg virus binding to or entry into cells. AID 540276. Potency, µM (doses to about 37.8 µM), for the others: at the top dose activity change, negative = inhibition, actives largely listed as inhibitors. hit rate 1.8% among 300,000. Marburg virus pseudotyped entry inhibition, cell reporter; control for the full effect not named in the record; about a third of the inactives were read at about 46 µM; active = well fitted inhibition curve with a large enough effect; inconclusive = small, poorly fitted or top-dose-only effect, or effect the other way; inactive = flat fitted curve, though single readings scatter; tested in HEK293 cells; about a fifth of its hits are not listed in these tables; note: % is set by controls: 0 for no effect and ±100 for the full control effect; luciferase read-out
# Lassa entry inh: Lassa virus entry inhibition. Lassa virus pseudotype entry inhibition, cell reporter; control for the full effect not named in the record. Potency, µM (doses to about 37.9 µM), for the others: top-dose activity change, negative = inhibition, actives largely listed as inhibitors. hit rate 1.2% among 300,000. AID 540256; active means well fitted inhibition curve with a large enough effect; inconclusive means small, poorly fitted or top-dose-only effect, or effect the other way; inactive means flat fitted curve, though single readings scatter; tested in HEK293 cells; note: % is set by controls: 0 for no effect and ±100 for the full control effect; nearly all actives have a fitted effect of over 50% in size; luciferase read-out
# 2A StopGo: lowers the luciferase signal of an FMDV 2A StopGo reporter; human cells with a luciferase reporter of 2A StopGo recoding; control for the full effect not named in the record; hit rate 1.2% among 410,000; AID 1159524; Potency, µM (doses to about 57.9 µM), without a hit: top-dose signal change, negative = less light; active = well fitted falling curve with a large enough effect; inconclusive = small, poorly fitted or top-dose-only effect; inactive = no such curve, though single readings can be large or run the other way; tested in HEK293T cells; note: % is set by controls: 0 for no effect and ±100 for the full control effect; nearly all actives have a fitted effect of over 45% in size; luciferase light after 4 h
# Cruzain noTriton: blocks cruzain activity in detergent-free assay; P25779; purified cruzain, Z-FR-AMC fluorescence, no detergent; Potency, µM, for inactives: max response, negative = inhibition, hits mostly inhibitors; hit rate 2.3% among 200,000; active = well fitted curve in the direction sought with a large enough effect; inconclusive = small, poorly fitted or top-dose-only effect, or another doubt; inactive = no such curve, though single readings can be large; an effect the other way counts as inactive or inconclusive;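 note: plate controls were enzyme without inhibitor for no effect and buffer without enzyme for full effect; nearly all actives have a fitted effect of over 40% in size; top concentration of the series not given in the record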
#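 Detergent-free condition (0.00005% Triton X-100) in acetate buffer pH 5.5 with DTT. 1.5 nM enzyme and compound were pre-mixed 15 min, then 2 uM Z-FR-AMC substrate added; reaction progress from fluorescence change between first and third reads (60 s).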
# NS1 inh: influenza NS1 inhibition; S. cerevisiae slowed by influenza A NS1, growth recovery by OD600; Potency, µM (highest dose often 46.1 µM), without a hit: at the highest dose activity, positive = more growth; hit rate 0.4% among 270,000; AID 2326; note: actives are rising curves; nearly all actives have a fitted effect of over 50% in size
#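 OD600 was taken as the measure of yeast growth restored by compound in an NS1-expressing S. cerevisiae strain. Cells had been washed out of glucose medium and diluted 1:100 into galactose -URA medium, pH 6.0.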
# RE007 growth inh: less growth of the S. pombe RE007 Vpr strain | hit rate 0.21% among 360,000 | Potency, µM (highest dose often 92.2 µM), without a hit: top-dose activity change, negative = less growth | S. pombe RE007 Vpr strain, BacTiter-Glo ATP luminescence, 24 h; control for the full effect not named in the record; active = well fitted falling curve with a large enough effect; inconclusive = small, poorly fitted or top-dose-only effect; inactive = no such curve, though single readings can be large or run the other way;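 note: % is set by controls: 0 for no effect and ±100 for the full control effect; nearly all actives have a fitted effect of over 50% in size; the assay follows cell death caused by Vpr and the record does not say whether a fall means rescue or toxicity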
#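 Fission yeast RE007 carrying one integrated HIV-1 vpr copy, seeded at OD 0.01 in PMG+AL medium with 23 nL pinned compound. Grown 24 h at 30 degrees; viability read by BacTiter-Glo luminescence after 5 min.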
# An asterisk follows results filed as active; ? = inconclusive; · = not tested or not shown; & = joins results of further samples; [ ] = another dose, or the depositor's remark. Unless noted, calls come from the whole dose curve; as a rule, active means well fitted rising curve with a large enough effect; inconclusive means small, poorly fitted or top-dose-only effect; inactive means no such curve, though single readings can be large or run the other way. Potency is the fitted concentration of half-maximal effect. Rows are unselected; about 4.7% have a hit in one of these screens.
SMILES,SARS PLpro yeast,Cruzain inh Det,MARV entry inh,Lassa entry inh,2A StopGo,Cruzain noTriton,NS1 inh,RE007 growth inh
Cc1cccc(C)c1OCC(=O)NNC(=O)CCNC(=O)c1ccco1,-7%,·,9%,5%,-16%,·,·,18%
O=C1[C@H]2[C@@H](c3ccc(F)cc3)N3C(=O)N(c4cccc(Cl)c4)C(=O)[C@@]3(Cc3ccc(Cl)cc3)[C@H]2C(=O)N1C1CCCCC1,8%,·,·,·,-15%,·,13%,1%
O=S(=O)(NCCSc1nc2ccccc2o1)c1ccccc1,0%,1.6%,-9%,9%,65%[activator],4%,-31%,13%
Cc1cccc(C(=O)N2CCc3cc(CNC(=O)c4ccnn4C)ccc32)c1,·,0.2%,·,?,20µM*,4%,·,·
CC(C)OP(=O)(OC(C)C)C(NCc1ccccc1)c1ccccc1 (configuration not stated),-1%,·,-22%,-6%,-4%,·,·,3%
O=C(CN1CCCC1)N1c2ccccc2Sc2ccc(C(F)(F)F)cc21,10%,-4.0%,?,-14%,?,-14%,-1%,0%
O=C(Cn1nnc2ccccc21)Nc1ccccc1[N+](=O)[O-],0%,·,?,7%,-15%,·,5%,84%
O=C(c1cnccn1)N1CCc2c([nH]c3ccccc23)C1c1cccc(Cl)c1 (configuration not stated),-2%,·,·,·,-19%,·,-1%,3%
CC/C(=N\NC(=O)C1CC1)c1cccc(Cl)c1,-4%,·,·,·,-1%,·,2%,-2%
COc1ccccc1-n1c(SCC(=O)Nc2cccc(C(=O)O)c2)nnc1-c1ccccc1O,5%,·,·,·,0%,·,?,-9%
O=C(NNC(=O)C1CC2CCC1C2)c1sc2ccccc2c1Cl (configuration not stated),-45%,-2.2%,22%,-5%,24%,-1%,-19%,-3%
CCOC(=O)C1CCN(C(=O)c2ccc3c(c2)sc2nc(-c4ccc(C)cc4)cn23)CC1,·,-1.0%,·,7%[46.1 µM],?,-6%,·,·
COC(=O)C1=C(C)Nc2nc(SCc3ccccc3)[nH]c(=O)c2C1c1cccs1 (configuration not stated),-7%,-1.3%,-36%,-20%,-19%,25µM*,20%,-4%
COc1ccc(C2Nc3ccccc3C(=O)N2NS(=O)(=O)c2ccc(C)cc2)c(OC)c1 (configuration not stated),3%,·,-25%[46.1 µM],-19%[46.1 µM],20%,·,-3%,-2%
Cc1ccccc1-n1nc(CSc2nc3ccccc3[nH]2)c(-c2ccccc2)c1N,-7%,-3.9%,?,?,?,-4%,0%,-21%
Cn1c(CNc2ccc(Cl)cc2)nnc1SCCN1CCCCC1,3%,-0.4%,2%,11%,-21%,-2%,4%,-4%
Cc1ccc(N(C(C)C(=O)Nc2ccccc2C(=O)N2CCOCC2)S(C)(=O)=O)cc1C (configuration not stated),3%,5.9%,-5%,11%,-1%,2%,-8%,22%
OCc1cnc(SCc2ccccc2)n1Cc1ccccc1,0%,·,-6%[46.1 µM],7%[46.1 µM],-20%,·,-11%,9%
COc1ccc2cc(CN(Cc3cccnc3)Cc3nnnn3Cc3ccccc3)c(=O)[nH]c2c1,-5%,-7.9%,1%&-19%,?,·,0%,-21%,5%
CN(CC(=O)Nc1ccc(Cl)cc1F)S(=O)(=O)c1ccc2c(c1)n(C)c(=O)c(=O)n2C,·,0.3%,10%[46.1 µM],13%[46.1 µM],-11%,-1%,·,·
NC(=O)c1ccsc1NC(=O)COC(=O)c1cnccn1,-1%,·,9%,2%,-13%,·,·,15%
COc1ccccc1/C=C(\C#N)C(=O)NCC1CCCO1 (configuration not stated),·,-3.5%,·,6%[46.1 µM],-7%,1%,·,·
O=c1[nH]c(=S)[nH]c(O)c1N=Nc1ccc(SC(F)F)cc1,0%,·,?,4µM*,-41%,·,2%,13%
CC(=O)Nc1cccc(Oc2ccc3c(c2)C(=O)N(CCC(=O)O)C3=O)c1,-2%,0.2%,6%,0%,8%,-12%,4%,-10%
Cc1cccc(NC(=O)N2CCC(c3nc4ccccc4o3)CC2)c1,-5%,-1.2%,-20%,-10%[14.3 µM],-16%,-7%,-59%,-2%
# Later entries.
SMILES,SARS PLpro yeast,Cruzain inh Det,MARV entry inh,Lassa entry inh,2A StopGo,Cruzain noTriton,NS1 inh,RE007 growth inh
O=c1c2c([N+](=O)[O-])cc([N+](=O)[O-])cc2nc2ccccn12,9%,·,·,·,-13%,·,1%,-2%
O=C(CCS(=O)(=O)c1ccc(F)cc1)Nc1nc(-c2ccccn2)cs1,8%,·,·,·,?,·,-12%,-3%
CC(C)(C)NS(=O)(=O)CC12CCC(CC1=O)C2(C)C (configuration not stated),-4%,2.6%,-15%[46.1 µM],1%,18%,-3%,-4%,22%
N#Cc1nc(/C=C/c2ccc(F)cc2)oc1N1CCCCCC1,·,-22%,-9%[46.1 µM],-13%[46.1 µM],-6%,29%,·,·
Cc1ccc(SCCC(=O)N/N=C/c2ccccc2O)cc1,?,-11%,?,?,4%,-4%,-11%,-10%
CCC(=O)N=C1SC2CS(=O)(=O)CC2N1c1cccc(OC)c1 (configuration not stated),-3%,5.4%,?,0%,5%,1%,5%,12%
CCOc1ccc(N(CC(N)=O)S(=O)(=O)c2ccc(F)cc2)cc1,-1%,-5.8%,?,-1%,-12%,2%,0%,17%
COc1ccc(NC(=O)Cc2c(F)cccc2Cl)c(OC)c1,-5%,-1.9%,14%,7%,38%[activator],-5%,4%,3%
Cc1cccc(NC(=O)C2CCCN(S(=O)(=O)c3ccc4c(c3)oc(=O)n4C)C2)c1C (configuration not stated),·,1.2%,-1%[46.1 µM],-2%[46.1 µM],-12%,3%,·,·
COc1ccc(CNC(=O)c2cnc(N3CCCC3)nc2C)cc1,·,-0.4%,·,17%[46.1 µM],2%,-5%,·,·
CCOc1c(C)cnc2c1c(=O)n(Cc1ccc(Cl)cc1)c(=O)n2C,-17%,·,·,·,-2%,·,-12%,21%
CCCCOCC1CC(CC#CCN2CCCCC2)C(=O)O1 (configuration not stated),1%,·,?,?,-20%,·,5%,-9%
CCOC(=O)c1c(NC(=O)c2ccoc2C)sc(C(=O)N(C)C)c1C,24%,2.0%,-3%[46.1 µM],?,-4%,3%,-1%,4%
CC(C)(C)C(=O)Oc1cc(N)n(S(=O)(=O)c2ccccc2)n1,5%,0.9%,-8%,·,-6%,-13%,2%,·
CN(C)/C=N/C(=S)Nc1ccc(F)cc1,·,7.5%,14%,0%,10%,3%,6%,-2%
Cc1cc(N2CCCC2)nc2ccc(NC(=S)NCCCOC(C)C)cc12,-3%,·,?,3%,-19%,·,·,-10%
COc1ccc(CNC(=O)CN2C(=O)COc3ccc(S(=O)(=O)N4CCCCC4)cc32)cc1,1%,0.4%,·,4%[46.1 µM],-20%&-11%,-5%,3%,-5%
COc1ccccc1OCC(=O)NNC(=O)CCCC(=O)NNC(=O)COc1ccccc1OC,8%,·,·,·,-1%,·,14%,0%
CCN(CC)S(=O)(=O)c1ccc2c(c1)N(CC(=O)NCCc1ccccc1)C(=O)CO2,·,1.5%,12%[46.1 µM],12%[46.1 µM],-6%,0%,·,·
COc1ccc(CCNC(=O)c2nnn(CC(=O)Nc3ccccc3C)c2N)cc1OC,-7%,0.3%,-29%[46.1 µM],-7%,0%,29%,2%,1%
Cc1cc(C)n(CC(C)NCc2c(C(=O)N3CCOCC3)nc3c(C)cccn23)n1 (configuration not stated),2%,·,·,·,7%,·,2%,4%
COc1ccc(S(=O)(=O)N2CCC(N3CCN(Cc4ccc(F)cc4)C(=O)C3=O)CC2)cc1,·,1.5%,·,-1%[46.1 µM],-29%,-14%,·,·
CCOC(=O)N1CCC(NC(=O)CSc2cc(=O)n(C)c3ccccc23)CC1,4%,-1.9%,5%[46.1 µM],0%,-7%,4%,-6%,15%
CCC(=O)Nc1nc(C)c(C(=O)NC2CCCCC2)s1,-4%,-2.9%,16%,0%,2%,-10%,-11%,-4%
CN(C)c1ccc(/C=N/NC(=O)COc2ccccc2)cc1,-2%,·,-12%[46.1 µM],?,44%[activator],·,·,0%

# Shown as tab-separated lines: part of the list above
Molecule	SARS PLpro yeast	Cruzain inh Det	MARV entry inh	Lassa entry inh	2A StopGo	Cruzain noTriton	NS1 inh	RE007 growth inh
O=C(CCS(=O)(=O)c1ccc(F)cc1)Nc1nc(-c2ccccn2)cs1	8%	·	·	·	?	·	-12%	-3%
CC(C)(C)NS(=O)(=O)CC12CCC(CC1=O)C2(C)C (configuration not stated)	-4%	2.6%	-15%[46.1 µM]	1%	18%	-3%	-4%	22%

# Further entries:
SMILES,SARS PLpro yeast,Cruzain inh Det,MARV entry inh,Lassa entry inh,2A StopGo,Cruzain noTriton,NS1 inh,RE007 growth inh
Cc1ccc(CN(C)C(=O)c2cccc(S(=O)(=O)N3CCc4ccccc43)c2)cc1,-6%,·,?,·,35%[activator],·,·,0%
O=C1C2C3C=CC(C3)C2C(=O)N1CCc1ccccc1 (configuration not stated),-4%,3.8%,24%,1%,·,4%,-98%,-4%
CCc1ccc(C(=O)NNC(=O)c2cc(S(=O)(=O)N(C)C)ccc2N2CCCC2)cc1,-14%,·,-7%,1%,-8%,·,14%,-17%
NC(=O)c1cc[n+](Cc2ccccc2Cl)cc1,-4%,·,10%[46.1 µM],2%[46.1 µM],-5%,·,-7%,-11%
CC(=O)Nc1ccc(OS(=O)(=O)c2ccc(C)cc2C)cc1,-2%,·,?,-1%[46.1 µM],-2%,·,-4%,9%
CC1(c2ccc(Cl)cc2)NC(=O)N(CC(=O)NC(=O)NCc2ccco2)C1=O (configuration not stated),1%,-2.4%,-6%,2%,·,2%,-5%,7%
